RE007 growth inh – less growth of the S. pombe RE007 Vpr strain; S. pombe RE007 Vpr strain, BacTiter-Glo ATP luminescence, 24 h; control for the full effect not named in the record; Potency, µM (highest dose often 92.2 µM), without a hit: at the highest dose activity change, negative = less growth; 0.21% of 360,000 active; AID 651644; active = well fitted falling curve with a large enough effect; inconclusive = small, poorly fitted or top-dose-only effect; inactive = no such curve, though single readings can be large or run the other way;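 further: nearly all actives have a fitted effect of over 50% in size; the assay follows cell death caused by Vpr and the record does not say whether a fall means rescue or toxicity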
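Fission yeast RE007 carrying one integrated HIV-1 vpr copy, seeded at OD 0.01 in PMG+AL medium with 23 nL pinned compound. Grown 24 h at 30 degrees; viability read by BacTiter-Glo luminescence after 5 min.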
StopGo reporter – lowers the luciferase signal of an FMDV 2A StopGo reporter; 1.2% of 410,000 active; human cells with a luciferase reporter of 2A StopGo recoding; control for the full effect not named in the record; Potency, µM (titrated, usually from 57.9 µM), for the others: top-dose signal change, negative = less light; active = well fitted falling curve with a large enough effect; inconclusive = small, poorly fitted or top-dose-only effect; inactive = no such curve, though single readings can be large or run the other way; tested in HEK293T cells; further: nearly all actives have a fitted effect of over 45% in size; luciferase light after 4 h
* hit, by the source's call; u = inconclusive; [ ] = remark or other dose. On the % scale 0 is the no-effect control and ±100 the full control effect; potency means the concentration at half of the fitted maximal effect.

SMILES	RE007 growth inh	StopGo reporter
CC(C)C(=O)N1CCCC1(C)C(=O)Nc1ccccc1 (stereo not drawn)	3%	-18%
CC(=O)OC[C@@H]1CN(Cc2ccccc2)C[C@H](n2cnc3c(N4CCN(c5ccccc5)CC4)ncnc32)O1	-5%	-10%
COc1ccc(NC(=O)C2(C)Cc3c(-c4ccc5c(c4)OCO5)ccnc3O2)cn1 (stereo not drawn)	-10%	-18%
CCOC(=O)C1=CCN(S(=O)(=O)c2ccccc2)C1c1ccc(C)cc1 (stereo not drawn)	3%	-15%
COc1cc(OC)cc(C2=Cc3ccccc3C(CC(=O)c3ccco3)N2c2ccc(-c3cnc(OC)nc3)cc2)c1 (stereo not drawn)	-1%	-19%
CC(C)CNC(=O)C1(C)CCCCCN1C(=O)c1cc2ccccc2s1 (stereo not drawn)	26%	-9%
CC(C)C(=O)N1CCCC1(C)C(=O)Nc1ccc(-n2cncn2)cc1 (stereo not drawn)	9%[18.4 µM]	-6%
CCCOC(=O)c1ccc(NC(=O)COC(=O)C2CCN(c3ccc(C(F)(F)F)cn3)CC2)cc1	12%	22%
CCN1C(=O)[C@H]2[C@@H](c3ccc(C(F)(F)F)cc3)N[C@]3(CCCN(Cc4ccc(C(F)(F)F)cc4)C3=O)[C@H]2C1=O	-4%	-10%
O=C1CC2(CCCC2)Oc2ccc(F)cc21	-1%	-8%
O=C(NCCN1CCC(n2c(=O)[nH]c3ccccc32)CC1)c1ccc(Cl)cc1	-18%	u
CN1OC[C@@H]2CN[C@H](c3ccc(-c4cc5ccccc5o4)cc3)C[C@@H]21	-2%	0.35µM*
O=C(N=Nc1c(O)[nH]c2ccc(Br)cc12)c1ccco1	-9%	8%
Cc1cccc(NC(=O)Nc2nnc([C@@H]3C[C@H](O)[C@@H](CO)O3)s2)c1	-5%	28%
C[C@H](CO)N1C[C@H](C)[C@H](CN(C)Cc2cccc(F)c2)Oc2ncc(Br)cc2C1=O	16%	53%[activator]
CCCCN1C[C@H](c2ccc(OC)cc2)[C@@H](CC(=O)Nc2ccc(OC)cc2)C1=O	-3%	-17%
CC(C)CNC(=O)C1(C)CCCN1Cc1ccc(OC(F)(F)F)cc1 (stereo not drawn)	2%[18.4 µM]	-22%
CC1(C(=O)NCc2ccccc2)CN(S(C)(=O)=O)CC(=O)N1Cc1cccs1 (stereo not drawn)	4%	-14%
C#CCNC(=O)c1ccc2sc([C@H]3C[C@H](O)[C@@H](CO)O3)nc2c1	-1%[18.4 µM]	7%
C=CC(=O)Nc1cccc(CN2C(=O)N(c3cc(OC)cc(OC)c3)Cc3cnc(NCCCCN(CC)CC)nc32)c1	-25%	-74%
COc1cc(NC(=O)c2cccc3c(-c4cnn(C)c4)coc23)cc(OC)c1OC	0%	u
CC(=O)N(CCOc1ccccc1)CCOc1ccccc1	-4%	46%[activator]
Cc1cccc(C)c1N1C(=O)c2ccccc2NC(=O)C1C(=O)NCCOc1ccccc1 (stereo not drawn)	-2%	-19%
Cn1nc(C(C)(C)C)cc1C(=O)N1CCCCC1c1cc(C(=O)Nc2ccc(F)c(Cl)c2)no1 (stereo not drawn)	8%	25µM*
C[C@H](CO)N1C[C@H](C)[C@@H](CN(C)C(=O)Nc2ccnc(N3CCOCC3)c2)OCc2cnnn2CCCC1=O	15%	-16%
CC(=O)c1ccc2c(c1)N(Cc1ccc3ccccc3c1)C(=O)C(C)S2 (stereo not drawn)	15%	-11%
C#CCN(C[C@@H]1[C@@H](OC(=O)NCc2ccccc2)[C@@H](OC(=O)NCc2ccccc2)Cn2c(=O)n(CCCCCC)c(=O)n21)S(=O)(=O)c1ccc(C)cc1	-1%	-11%
O=C(Nc1ccc2c(c1)OCCO2)C1c2ccccc2OCC(=O)N1Cc1ccccc1 (stereo not drawn)	-1%	-19%
CCN(CC)C(=O)C1=C(C)N(Cc2ccc(F)cc2)C(=O)C(CC(=O)NCc2ccco2)C1 (stereo not drawn)	-19%	0%
CCOC(=O)[C@]12Cc3cc(OC)ccc3[C@H]1N(Cc1ccccc1)C(=O)c1cc(F)c(F)cc12	-5%	-18%
CCC1(CC)C(=O)NC(=O)N(c2ccccc2)C1=O	1%	-17%
CC(C)(C)CN1C(N)=NC[C@@H]1c1ccccc1	13%	-5%
CC(C)C[C@H]1COc2cccc(N3CCN(C)CC3)c2S(=O)(=O)N1	2%	-4%
Clc1cccc(-c2nc3c4ccccc4ccn3c2Cc2ccsc2)c1	8%	24%
O=C(CCNC(=O)c1ccc(Br)cc1)Nc1ncccc1O	-1%	-2%
Cn1cc(-c2csc(C(O)c3ccc(F)cc3)n2)cn1 (stereo not drawn)	8%	-19%
COc1cccc(-c2ccccc2C2=CC(=O)CC(C)(C)C2=O)c1	-12%	-23%
O=c1c2ccccc2c2ccccc2c(=O)n1Nc1ccccc1	37%	0%
O=C(NCCc1ccc(O)cc1)c1[nH]c(C(F)(F)F)nc1-c1ccccc1	7%	-10%
CC(C)(C)C(=O)OCc1ccc(C2=CC(=O)CC(C)(C)C2=O)cc1	-21%	-2%
COc1cc(C(=O)NN=Cc2ccc(N(C)C)cc2)cc(OC)c1OC	-9%	3%
Cc1ccc(F)c(S(=O)(=O)NC(=O)C2(C)CCN2C(=O)c2ccco2)c1 (stereo not drawn)	7%	-12%
CCCCNC(=O)C(NC(=O)c1ccccc1)C(=O)c1ccccc1 (stereo not drawn)	-11%	1%
FC(F)(F)c1ccccc1Cc1c(-c2ccccc2)nc2ccc(Br)cn12	6%	38%[activator]
COc1cccc(-c2cc(C(=O)Nc3ccc(N(C)C(C)=O)cc3)c3cc(Br)ccc3n2)c1	-3%	u
COc1cc(CCN(C(=O)c2cc3ccccc3[nH]2)C(c2ccccn2)c2nc3ccccc3[nH]2)cc(OC)c1 (stereo not drawn)	3%	25%
C[C@H]1CN([C@@H](C)CO)C(=O)CCCn2nncc2CO[C@@H]1CN(C)Cc1cccc(C(F)(F)F)c1	3%	-21%
CN(NC(=O)C(=O)NCc1ccco1)C(=O)Nc1ccc(Cl)cc1	10%	46%[activator]
CC1(C(=O)NS(=O)(=O)c2ccc3ccccc3c2)CCN1C(=O)C1(c2ccc(Cl)cc2)CCC1 (stereo not drawn)	12%	5%
NC(=S)c1csc(CCNC(=O)c2ccccc2)n1	-29%	-14%
CC(=O)Nc1cccc(-c2ccnc3c2CC(C)(C(=O)Nc2ccc(C(C)C)cc2)O3)c1 (stereo not drawn)	17%	-24%
O=C1c2ccccc2C(c2nnnn2-c2ccc3c(c2)OCCO3)N1CCc1c[nH]c2ccccc12 (stereo not drawn)	2%	0%
CC(C)C[C@H]1CNC(=S)N1C[C@H]1CCCN1C[C@H](CC(C)C)N1C[C@H](CC(C)C)N(CCc2ccccc2)C1=S	-2%	u
O=C(NCc1cc(C(F)(F)F)ccc1Cl)c1cccc2c1C(=O)c1ccc(N3CCC(N4CCCCC4)CC3)cc1S2(=O)=O	-10%	0%
CCCCCCCCCCCCN1[C@@H](CC(=O)O)c2cc(F)ccc2S1(=O)=O	u	-6%
Clc1cccc(-c2nc3ccc(Br)cn3c2Cc2ccccc2)c1	-14%	22%

Next records follow.
SMILES	RE007 growth inh	StopGo reporter
Nc1[nH]c(C(=O)c2ccccc2)c(-c2ccc(Cl)cc2Cl)c1C(=O)c1ccc(Cl)c(Cl)c1	0%	-16%
O=C(O)C1=CCC=CC1C(=O)O (stereo not drawn)	-11%	1%
C[C@H]1CN([C@@H](C)CO)C(=O)CCCn2cc(nn2)CO[C@@H]1CN(C)C(=O)c1ccc(N2CCN(C)CC2)cc1	1%	-13%
COc1ccc(C(C(=O)Nc2ccc3c(c2)OCCO3)n2c(=O)c(-c3cc4ccccc4[nH]3)nc3ccccc32)cc1 (stereo not drawn)	12%	u
Cc1cnc(C)c(Nc2nc(C(N)Cc3ccc(C(F)(F)F)cc3)cs2)n1 (stereo not drawn)	8%	-27%
[Cl][Pt+2][Cl].[NH-]C1CCCCC1[NH-] (stereo not drawn)	-12%[18.4 µM]	-15%
Cc1ccc(F)c(S(=O)(=O)NC(=O)C2(C)CCN2C(=O)Cc2ccc(-c3ccccc3)cc2)c1 (stereo not drawn)	25%[18.4 µM]	6%
CCc1nc2ccc(C(=O)N3CCN(c4ccccc4)CC3)cn2c1N(C)CCCc1ccccc1	-16%	-27%
O=C(Nc1ccc(Cl)cc1)c1cc(S(=O)(=O)N2CCCCC2)ccc1N1CCOCC1	9%	-21%
CCOC(=O)C1=C(COC(=O)c2cc([N+](=O)[O-])ccc2Cl)NC(=O)NC1C (stereo not drawn)	-10%	-2%
COc1ccccc1CC(=O)Nc1cc(C)on1	-6%	-3%
CCCCNC(=O)c1nc(C2CCN(S(=O)(=O)c3ccc(OC(F)(F)F)cc3)CC2)oc1-c1ccccc1	-22%	-21%
CC1=C(C(=O)N(C)C)CC(CC(=O)NCCCN(C)C)C(=O)N1Cc1ccc(F)cc1 (stereo not drawn)	0%	-16%
COCCN(Cc1ccc(OC)cc1)c1c(C)nc2ccc(C(=O)NCCc3c[nH]c4ccccc34)cn12	2%	-17%
COCCNC(=O)C1CCCN(C(=O)c2ccc3sccc3c2)CC1 (stereo not drawn)	-16%	-12%
Cc1cnc(NS(=O)(=O)c2ccc(N)cc2)nc1-c1ccccc1O	-16%	36%[activator]

Profiles, looked up by structure. Values in the order: RE007 growth inh	StopGo reporter
CCCCNC(=O)c1nc(C2CCN(S(=O)(=O)c3ccc(OC(F)(F)F)cc3)CC2)oc1-c1ccccc1 as listed: -22%	-21%
CC1=C(C(=O)N(C)C)CC(CC(=O)NCCCN(C)C)C(=O)N1Cc1ccc(F)cc1 (stereo not drawn) as listed: 0%	-16%
Cc1cnc(NS(=O)(=O)c2ccc(N)cc2)nc1-c1ccccc1O as listed: -16%	36%[activator]
CCOC(=O)C1=C(COC(=O)c2cc([N+](=O)[O-])ccc2Cl)NC(=O)NC1C (stereo not drawn) as listed: -10%	-2%
COCCN(Cc1ccc(OC)cc1)c1c(C)nc2ccc(C(=O)NCCc3c[nH]c4ccccc34)cn12 as listed: 2%	-17%

Going on with the list.
SMILES	RE007 growth inh	StopGo reporter
COc1ccc(NC(=O)C2(C)Cc3c(-c4ccc(N(C)C)cc4)ccnc3O2)cn1 (stereo not drawn)	-2%	-12%
CC1(Cc2cccc(C(F)(F)F)c2)C(=O)Nc2ccc(-c3ccc(F)c(Cl)c3)cc21 (stereo not drawn)	6%	-30%
Cc1noc(C)c1S(=O)(=O)N(C)C[C@H]1OCc2cn(nn2)CCCC(=O)N([C@@H](C)CO)C[C@@H]1C	0%	-14%
Cc1ccc(CN2C(=O)CSCC2(C)C(=O)Nc2c(C)cccc2C)cc1 (stereo not drawn)	0%	-8%
COc1ccc(CNC(=O)c2cccc3c(-c4cccnc4)coc23)cc1OC	-19%	u
COC(=O)[C@@]12C[C@@H](CC(=O)NCCCN3CCCC3=O)C(=O)N(Cc3cccc4ccccc34)C1=CCC(C)(C)C2	0%	-7%
N#Cc1ccc(C(C(=O)NC2CCCCC2)n2c(=O)c(-c3ccccc3)nc3ccccc32)cc1 (stereo not drawn)	-1%	-13%
FC(F)(F)c1ccccc1Cc1c(-c2ccccc2)nc2ccc(Cl)cn12	0%	53%[activator]
Cc1cc2cc3c(=O)[nH]c(=O)cc-3n(CC(O)C(O)C(O)CO)c2cc1C (stereo not drawn)	2%	-11%
COc1ccccc1-c1noc2c1C(=O)NCC2	-7%	0%
NC(=NCc1ccccc1)NN=Cc1ccnc2ccccc12	u	-4%
CCOC(=O)[C@]12CCC=C1N(Cc1ccccc1)C(=O)[C@H](CC(=O)NCCCN1CCCC1=O)C2	-4%	-14%
Nc1nc(N)c2cc(CNc3ccc(Cl)c(Cl)c3)ccc2n1	14%	35µM*
CC(C)C[C@H]1CN(CCCC[C@H]2CNC(=O)C(=O)N2CCC2CCCCC2)C(=O)C(=O)N1CC1CCCCC1	-3%	u
CCCNC(=O)C1(C)CCCN(C/C=C/c2ccccc2)C1 (stereo not drawn)	-17%	0%
CCN1CCN(c2sc(S(=O)(=O)CC)nc2S(=O)(=O)c2ccc(C)cc2)CC1	0%	-2%
O=C(OCC(=O)N(CCc1ccccc1)Cc1ccccc1)c1ccc(F)c(S(=O)(=O)N2CCOCC2)c1	7%	-24%
CC1(C(=O)Nc2cccc3ccccc23)CCN1C(=O)Cc1ccccc1Cl (stereo not drawn)	5%[18.4 µM]	-21%
CC(=O)c1ccc(OCc2nnn(CC(=O)O)c2-c2ccccc2)cc1	15%	-9%
NC(=O)c1cccc(-c2ccnc3c2CC(C(=O)Nc2ccc(Cl)cc2)O3)c1 (stereo not drawn)	-7%[18.4 µM]	u
CCO[C@H]1OC(C(N)=O)=C[C@@H](C2CC2)[C@@H]1CCCO	3%	-3%

The list is partial, so the mix of outcomes need not match the whole.
